# High-throughput results deposited in PubChem by several laboratories.
# UCH37 DUB inh: blocks the human deubiquitinase UCH37; AID 588478; purified proteasome/UCH37, Ub-AMC cleavage fluorescence; 330,000 compounds, 0.33% hits; inhibition, % (concentration not given with the values);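 active = mean of two replicates above 20%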;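 note: 0% = compound-free wells with enzyme and 100% = wells lacking proteasome; stock transfer was 100 nL into about 20 µL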
# Target sequence (Q9Y5K5 whole entry, looked up): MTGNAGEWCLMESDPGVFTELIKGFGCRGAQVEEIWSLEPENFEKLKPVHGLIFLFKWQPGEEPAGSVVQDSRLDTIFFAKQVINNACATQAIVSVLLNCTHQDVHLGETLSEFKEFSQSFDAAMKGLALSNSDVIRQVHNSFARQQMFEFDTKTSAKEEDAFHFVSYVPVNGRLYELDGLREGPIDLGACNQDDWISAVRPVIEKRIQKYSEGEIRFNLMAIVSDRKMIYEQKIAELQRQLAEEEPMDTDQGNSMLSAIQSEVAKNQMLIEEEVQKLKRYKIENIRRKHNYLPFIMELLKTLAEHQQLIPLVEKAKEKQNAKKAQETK
#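 Assay system: Proteasome-bound UCH37. Buffer or medium: pH 7.4 Tris-HCl (50 mM) with ovalbumin, ATP-MgCl2, DTT. Incubation: 30 min preincubation with enzyme, 25 min cleavage at room temperature. Measured by: fluorescence, ex 355 nm, em 460 nm. Read-out basis: percent inhibition. Control set: wells without proteasome as full block, compound-free enzyme plus substrate as uninhibited.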
# HNF4A DNA FP: change in binding of human HNF4 alpha to DNA | HNF4a-FITC DNA binding, fluorescence polarization, 1 h | activity change, % at 10 µM | 360,000 compounds, 0.3% hits | AID 1224865; in the data active = activity change above about 30%, passing the limit was not always enough;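 note: controls were the assay level and a saturating level of protein; the project sought stronger binding though the title names inhibitors; some compounds called inactive have numbers as strong as hits; positive values seem to mean higher polarization but the record does not say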
# Ecoli growth: blocks Escherichia coli growth; OD600 absorbance (concentration not given with the values); AID 1053175; OD600, 23 h; active compounds read low; 330,000 compounds, 0.21% hits;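 active = OD600 absorbance below the run mean of sample wells minus 3.6 SD, in any replicate, cut at about 0.56 in these data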;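 note: stock transfer was 300 nL into about 60 µL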
# Vif TR-FRET: inhibitors of Vif binding to APOBEC3G peptide, primary screen, biochemical, TR-FRET, GST-Vif 1-94, biotin-A3G peptide, dose response retest (AID 1117319). TR-FRET GST-Vif / biotin-A3G peptide binding; higher % means a stronger effect; test concentration not given here; strong numbers were not always called active. inhibition, %, or IC50 in µM where a hit was titrated. 260,000 compounds, 0.57% hits;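 active = above the screen mean plus three standard deviations and confirmed in dose response; inconclusive = results disagree or hit not tested in dose response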;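 note: Vif residues 1-94 fused to GST binding biotinylated APOBEC3G peptide 110-148; 0% = full assay without inhibitor and 100% = GST in place of GST-Vif; retest series ran down from 100 µM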
# LANA-H2A inh: blocks KSHV LANA binding to histone H2A/H2B | Q9QR71 | cell-free LANA-H2A/H2B peptide, fluorescence polarization | inhibition, % (concentration not given with the values) | 320,000 compounds, 0.6% hits; in the data active = inhibition mostly above about 10%, no sharp cut-off; inactive = mostly below about 6.7%;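 note: stock transfer was 7.5 nL into about 10 µL; 0% = median of vehicle wells and 100% = median of positive control wells; one replicate is shown; the record names a cut of 25% in any replicate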
# A1 inh: inhibitors of the anti-apoptotic protein A1, read as caspase activation; MEF A1-2A-BIM cells, Caspase-Glo 3/7 luminescence, 3 h; percent of clofoctol response, vehicle zero; caspase activation, % (no concentration beside the values); 330,000 compounds, 0.066% hits; AID 2462;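 active = over half of replicate activation scores above 10%, or exactly half above 10 with the replicate mean above 10; inconclusive = replicate mean below 10 yet half the replicates above 10; inactive = over half of replicates below 10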;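 note: wells of about 30 µL received 50 nL stock; many hits fall short of the cut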
# Beta2AR agonist: agonists of human beta-2 adrenergic receptor inducing internalization; P07550; Am2.2-beta2AR cells, FAP receptor internalization, flow cytometry; reference of the scale not given here; response, % (test concentration not listed); 340,000 compounds, 0.43% hits; AID 504454;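 active = response above a set limit, near 3 SD of response in nonfluorescent compounds, cut at about 42% in these data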;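 note: stock transfer was 100 nL into about 11 µL; a reference agonist was the positive control; negative values mostly stem from fluorescent compounds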
# Target sequence (P07550 whole entry, looked up): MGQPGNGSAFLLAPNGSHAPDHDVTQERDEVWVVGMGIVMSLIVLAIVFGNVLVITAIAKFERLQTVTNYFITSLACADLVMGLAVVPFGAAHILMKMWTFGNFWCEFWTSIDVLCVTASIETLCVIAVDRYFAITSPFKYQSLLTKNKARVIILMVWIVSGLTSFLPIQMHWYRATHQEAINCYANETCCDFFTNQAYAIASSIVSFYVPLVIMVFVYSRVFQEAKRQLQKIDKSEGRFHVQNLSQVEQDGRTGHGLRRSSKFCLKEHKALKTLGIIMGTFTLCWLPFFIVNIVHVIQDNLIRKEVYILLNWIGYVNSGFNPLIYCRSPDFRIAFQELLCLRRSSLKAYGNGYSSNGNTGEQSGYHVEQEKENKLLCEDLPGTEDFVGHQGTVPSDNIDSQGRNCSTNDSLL
# * hit, by the source's call; ? = inconclusive; nt = not tested or not shown.
SMILES,UCH37 DUB inh,HNF4A DNA FP,Ecoli growth,Vif TR-FRET,LANA-H2A inh,A1 inh,Beta2AR agonist
Cc1cccc(NC(=O)c2c(C)cc(=O)oc2C)n1,5.0,1.1,0.73,?,8.5,0.1,-7
COc1ccc(-n2c(C)cc(C(=O)Cn3nnc4ccccc4c3=O)c2C)cc1,3.5,0.6,0.68,4%,-11,-0.5,-3
COc1ccc(Cl)cc1NS(=O)(=O)c1cccc(C(=O)NCC(c2ccco2)N2CCCC2)c1 (stereo not drawn),1.5,3.8,0.66,2%,-0.8,0.1,37
CCN1CCN(c2nc(-c3ccc(F)cc3)cc(=O)[nH]2)CC1,0.5,-0.1,0.63,nt,-1.6,0.3,-2
CS(=O)(=O)c1ccc(Cl)c(C(=O)NCC2CCCCC2)c1,2.0,0.9,0.62,0%,2.5,0.2,-3
CC1(CCc2ccccc2)NC(=O)NC1=O (stereo not drawn),4.5,1.4,0.68,-6%,nt,nt,-2
CC12CCC(C(=O)N(c3cccc(Cl)c3)C1=O)C2(C)C (stereo not drawn),6.1,-0.1,0.7,nt,-0.1,-0.3,4
Cc1nnc(NC(=O)CSc2ncn(-c3ccccc3)n2)s1,1.6,2.0,0.69,1%,8.3,-0.2,-11
CCOC(=O)c1ccc(S(=O)(=O)N2CCN(C)CC2)cc1,2.7,-1.2,0.6,-3%,6.1,0.9,9
COc1ccc(N2C(=O)c3ccc(C(=O)Nc4ccccc4O)cc3C2=O)cc1,0.8,4.0,0.69,nt,15*,0.9,-2
O=C(Nc1ccccc1)c1ccc2snnc2c1,0.7,0.2,0.64,-1%,-6.4,-4.5,-6
CC(=O)Nc1ccc(/C(C)=N/Nc2nc(N3CCOCC3)nc(N3CCOCC3)n2)cc1,nt,-0.1,nt,19%,3.8,0.1,-2
OCC1CCCCN1CC(O)COC(c1ccc(F)cc1)c1ccc(F)cc1 (stereo not drawn),2.7,0.0,0.67,3%,1.8,0.1,2
COc1ccccc1NC(=O)C/C(C)=N/NC(=O)C12CC3CC(CC(C3)C1)C2,nt,-2.6,nt,10%,-4.0,-0.3,-1
Nc1nc(-c2cccs2)c(-c2cccs2)s1,-2.0,0.8,0.61,-11%,-7.2,-0.1,7
CCN(CC)C(=O)[C@H]1CC(CC(=O)NCc2ccc(OC)c(OC)c2)C(=O)N2CCc3c([nH]c4ccc(OC)cc34)[C@]12C (stereo partly drawn),-1.8,1.3,0.71,6%,nt,nt,2
Cc1cc(OC(C)C(=O)NCCc2c[nH]c3ccccc23)c2c(C)cc(=O)oc2c1 (stereo not drawn),1.0,4.2,0.77,nt,-2.1,1.4,-7
CCOCCCNC(=S)Nc1ccc(Br)cc1Cl,2.9,-1.8,0.66,?,-3.8,1.0,-11
Cc1cc(=O)oc2cc(OCc3ccc(C(=O)OCC(=O)Nc4ccc(N(C)C)cc4)cc3)ccc12,-24,-0.9,0.71,4%,nt,nt,49*
O=C(Nc1ccccc1C(=O)NCc1ccccc1)c1ccccc1Br,1.5,-0.6,nt,nt,0.6,0.3,-2
CSc1nc(Sc2cccc(Cl)c2)c2ccccc2n1,-2.8,1.5,0.78,1%,3.1,-0.2,-3
CCC1=NN(C(=O)CCc2ccc3c(c2)OCO3)C(O)(C(F)(F)F)C1 (stereo not drawn),2.2,0.7,0.7,11%,4.9,-0.6,-12
CC1CCC(NC(=O)Cn2cnc3sccc3c2=O)CC1 (stereo not drawn),-0.4,-0.5,0.69,0%,1.0,1.6,19
COc1ccc(CNC(=O)C(C)N2C(=O)NC(c3ccccc3)(c3ccccc3)C2=O)cc1 (stereo not drawn),1.8,1.0,0.7,nt,0.0,-0.5,-2
CCOc1ccccc1-n1nnnc1SC(C)C(=O)OC (stereo not drawn),-0.2,2.3,0.63,-1%,-5.1,0.6,4

# Compounds shown so far containing an aryl thioether with sulfur outside any ring (3):
SMILES,UCH37 DUB inh,HNF4A DNA FP,Ecoli growth,Vif TR-FRET,LANA-H2A inh,A1 inh,Beta2AR agonist
Cc1nnc(NC(=O)CSc2ncn(-c3ccccc3)n2)s1,1.6,2.0,0.69,1%,8.3,-0.2,-11
CSc1nc(Sc2cccc(Cl)c2)c2ccccc2n1,-2.8,1.5,0.78,1%,3.1,-0.2,-3
CCOc1ccccc1-n1nnnc1SC(C)C(=O)OC (stereo not drawn),-0.2,2.3,0.63,-1%,-5.1,0.6,4

# The results go on.
SMILES,UCH37 DUB inh,HNF4A DNA FP,Ecoli growth,Vif TR-FRET,LANA-H2A inh,A1 inh,Beta2AR agonist
CCCCOCCCNC1=NCCCCC1,0.8,-0.7,0.67,-2%,-5.2,-0.3,4
COc1ccc(S(=O)(=O)NC2CCSc3ccccc32)cc1NC(C)=O (stereo not drawn),1.6,1.1,0.72,0%,-2.3,-0.5,-1
O=C(CSc1ccc(-c2ccco2)nn1)NCc1ccc(Cl)cc1,-0.6,-1.4,0.71,nt,nt,1.0,-5
O=S(=O)(Nc1cccnc1)c1ccc2c(c1)OCCO2,0.1,-0.2,0.71,4%,0.1,-0.1,9
Cn1c(SCC(=O)NCc2ccc3c(c2)OCO3)ncc(C(=O)Nc2ccc(F)cc2)c1=O,-72,0.3,0.65,-32%,-1.4,-7.6,4
Cc1ccc(C(=O)OCC(=O)NCc2cccs2)cc1,3.2,1.7,0.69,nt,-2.5,0.4,3
CCOC(=O)N1CCN(C(=O)c2ccc(S(=O)(=O)NCc3ccco3)cc2)CC1,6.7,-0.4,0.69,3%,2.6,-0.6,-1
COC(=O)c1ccc(-c2noc(CN(C)CCC3CCCCO3)n2)cc1 (stereo not drawn),-0.4,-4.5,0.65,0%,-2.5,-0.3,-7
Cn1c(=O)n(C)c2cc(NC(=O)CCl)ccc21,6.1,2.6,0.69,8%,0.3,-0.4,11
CC(=O)Nc1ccc(S(=O)(=O)n2nc(-c3ccc(C)cc3)nc2N)cc1,-0.1,7.0,0.75,3%,0.1,-1.9,6
Cc1ccc(C(=O)c2c[nH]c(C(=O)NCc3cccnc3)c2)cc1,1.7,-6.4,0.63,1%,-0.9,-0.3,1
O=C(NCc1ccco1)c1ccccc1NS(=O)(=O)c1ccc(Cl)s1,2.8,0.4,0.68,16%,-1.1,-1.0,11
COc1ccc(N=Cc2c(O)n(-c3cccc(C)n3)c(=O)c3ccccc23)cc1,2.3,1.1,0.7,-2%,0.7,-0.5,-8
O=C(NCC(=O)N1CCCCCCC1)c1ccc(Br)o1,2.8,1.2,0.67,15%,4.4,-0.1,0
NC(=O)COC(=O)CC(NC(N)=O)c1ccc(Cl)cc1 (stereo not drawn),-0.8,3.4,0.69,18%,0.1,0.0,-3
Cc1ccc(-c2nn3c(C)nnc3s2)cc1NC(=O)C(C)C,5.1,-1.9,0.74,2%,-1.2,0.1,-2
CCc1ccccc1NC(=O)Nc1ccc(F)cc1,0.7,-2.0,0.62,?,-1.1,-5.4,3
Cc1nc2ccc(C(=O)O)cc2c2c1CC(C)S2 (stereo not drawn),-133,-18,0.79,13%,-5.4,0.0,9
COc1ccc(CCNC(=O)CN(C)S(=O)(=O)c2cccs2)cc1OC,1.2,-0.2,0.72,6%,-0.1,0.3,-3
Cc1cccc(C(=O)c2c(N)sc3c2CCCC3)c1,2.1,9.5,0.64,nt,-1.0,-0.5,-1
Cn1c(CCN2CCN(c3ccccn3)CC2)nc2cc(NC(=O)COc3ccc(Cl)cc3)ccc21,0.8,-36,0.7,-2%,2.5,0.7,19
CCN1CCN(c2ccc(S(=O)(=O)N3CCCCC3)cc2NC(=O)COc2ccccc2)CC1,2.5,-2.1,0.72,-3%,4.4,-0.5,5
COc1c(C)cccc1C(=O)Nc1ccc(N2CCN(C(=O)c3ccccc3C)CC2)cc1,1.4,2.8,0.65,nt,-14,0.9,19
CSc1cccc(NC(=O)COC(=O)c2ccccn2)c1,0.4,-0.6,0.63,nt,-9.2,-0.8,3
Cc1ccc(NC(=O)CSc2nnc(C3COc4ccccc4O3)o2)c(Cl)c1 (stereo not drawn),2.0,1.4,0.65,1%,2.9,-0.3,-8
# (next part)
SMILES,UCH37 DUB inh,HNF4A DNA FP,Ecoli growth,Vif TR-FRET,LANA-H2A inh,A1 inh,Beta2AR agonist
C=CCN(CC(=O)NCc1ccc(OC)cc1)C(=O)c1csnn1,0.7,2.9,0.64,22%,1.2,1.5,-3
C=CCN1C(=O)C(Cc2ccc(OC)cc2)SC1=Nc1ccc(C(=O)O)cc1 (stereo not drawn),3.5,-0.2,0.65,6%,3.6,0.3,-1
CCOc1ccc2nc(NC3=NC(c4ccc(OC)cc4)CC(=O)N3)nc(C)c2c1 (stereo not drawn),-3.9,14,0.72,8%,1.2,-1.1,-9
O=C1N/C(=N\N=C\c2cccs2)SC1Cc1ccc(Cl)c(Cl)c1 (stereo not drawn),nt,-0.2,nt,nt,0.8,0.7,0
CC1CC2C(C(O)CC3(C)C2CCC3(O)C(=O)CO)C2(C)C=CC(=O)C=C12 (stereo not drawn),0.4,3.1,0.7,-5%,nt,nt,-2
COc1ccc(OC)c(NC(=S)NCCC(c2ccccc2)c2ccccc2)c1,0.2,-2.0,0.7,nt,1.1,2.0,2
COc1ccc(CN2CCc3cc(OC)c(OC)cc3C2)cc1O,1.7,1.2,0.71,-7%,2.5,0.5,2
Cc1ccc2c(N)[nH]nc2n1,1.7,-2.1,0.71,nt,-2.2,0.3,-3
CCNc1nnc(-c2ccc(C)cc2)o1,0.0,2.3,0.62,4%,-0.9,-2.3,0
Cc1onc(-c2ccccc2)c1C(=O)NNC(=S)NC(=O)c1ccc(F)cc1,3.6,3.2,0.68,nt,0.8,-1.6,-8
O=C(/C=C/c1c(Cl)cccc1Cl)n1cccn1,0.3,3.3,0.69,5%,-0.4,-0.1,-6
COc1ccc(/C=N/N2CCOCC2)cc1Cn1cc([N+](=O)[O-])cn1,nt,1.3,nt,1%,3.0,0.5,-1
CC1Cc2nc(SCC(=O)Nc3ccc4c(c3)OCO4)n(CCc3ccccc3)c(=O)c2S1 (stereo not drawn),2.5,1.4,0.8,-3%,-1.5,-0.2,-7
CC(NC(=O)c1ccc(N2CCCC2)c([N+](=O)[O-])c1)c1ccc(S(N)(=O)=O)cc1 (stereo not drawn),2.5,4.5,0.69,nt,8.9,1.1,-6
COc1cc2c(cc1OC)-c1cc(Nc3cccc(F)c3)nc(=O)n1CC2,-279,-3.2,0.7,-13%,nt,nt,-16
CC(NC(=O)Cc1ccc(F)cc1)c1ccccc1 (stereo not drawn),0.7,1.4,0.74,5%,0.2,0.5,1
O=C(CC12CC3CC(CC(C3)C1)C2)NC(=S)NCc1ccco1,0.3,-5.5,0.71,-6%,-9.1,0.8,0
COc1nc(C)ccc1-c1noc(-c2ccncc2)n1,1.1,0.1,0.7,-6%,3.6,-3.1,2
CCN1CCN(C(=O)CS(=O)(=O)Cc2nc(-c3ccccc3C)oc2C)CC1,-0.8,1.3,0.67,nt,-2.3,-0.3,1
N#CC1(NC(=O)COC(=O)c2ccc(-c3ccc(O)cc3)cc2)CCCCC1,-5.1,-1.7,0.66,20%,2.5,-3.4,-5
O=C(O)Cn1cc(/C=C/[N+](=O)[O-])c2ccccc21,0.0,-1.2,0.65,4%,3.3,-0.6,3
Cc1sc2ncnc(N3CCC(C(=O)NNC(=O)c4ccccc4Cl)CC3)c2c1C,1.4,3.9,0.7,nt,0.6,-0.8,-2
Cc1ccnc(N2C(=O)c3ccccc3C2Nc2ccccc2Cl)c1 (stereo not drawn),3.6,4.1,0.77,?,1.3,0.6,-1
O=C(Nc1cccnc1Cl)c1cccnc1Cl,4.4,-0.1,0.73,?,2.5,-0.1,-3
